Sa growth 42C = S. aureus growth inhibition at 42 and 30 °C, primary screen, LtaS inhibitor project, RN4220, two temperatures. OD600, 20 h, 42 °C; active compounds read low. AID 720641, 2013. relative growth, % (concentration not given with the values). 0.53% of 170,000 active;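 active = growth at 42 °C up to 50% and 20 or more points under that at 30 °C, or under 10% at both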;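 note: 300 nL library stock went into each well; scaled to the means of positive and negative controls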
GIV-Gai inh = inhibitors of GIV peptide binding to Galpha-i3, primary screen, biochemical, fluorescence polarization, FITC-GIV GBA peptide, rat Galphai3; 90 min; active compounds read low; scaled: aluminum fluoride 0%, vehicle 100%; percent of control (FP), % (test concentration not listed); 0.42% of 210,000 active;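 active = replicate mean at 85% of control or lower, very high polarization wells dropped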;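 note: lower values mean more displacement of the GIV peptide from Galpha-i3; wells of about 15 µL received 100 nL stock; the first replicate is given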
Target sequence (P08753 whole entry, looked up): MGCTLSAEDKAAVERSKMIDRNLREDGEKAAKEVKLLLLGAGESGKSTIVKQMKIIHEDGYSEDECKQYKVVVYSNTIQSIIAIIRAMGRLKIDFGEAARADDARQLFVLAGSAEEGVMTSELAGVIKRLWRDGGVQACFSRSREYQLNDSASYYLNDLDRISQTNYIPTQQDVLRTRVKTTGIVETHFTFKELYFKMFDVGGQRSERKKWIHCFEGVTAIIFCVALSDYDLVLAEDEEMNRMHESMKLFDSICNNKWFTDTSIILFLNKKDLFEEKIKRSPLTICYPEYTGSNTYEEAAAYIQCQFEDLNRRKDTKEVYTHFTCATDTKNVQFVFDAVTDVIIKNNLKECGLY
HCMV UL50-53 inh = inhibitors of HCMV UL50-UL53 interaction, biochemical, HTRF | normalized percent inhibition | HCMV UL50-UL53 nuclear egress complex (human cytomegalovirus) | inhibition, % (no concentration beside the values) | AID 1918969, 2023 | 0.15% of 190,000 active;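 active = both replicates at 50% or more, plus weaker picks with an unusually low signal ratio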;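 note: stock transfer was 100 nL into about 20 µL; 0% = negative control wells and 100% = wells with untagged competitor protein; inactives centre near -12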
Sa growth 42C second temp = further read-out of Sa growth 42C, marked with its call; relative growth, %; measured here: growth at 30 °C;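 optical density after 20 h as mean of two plates; 100% = untreated growth and lower means inhibition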
Starred values were filed as active, the others as inactive; · = not tested or not shown; & = joins results of further samples.

Fields – GIV-Gai inh, Sa growth 42C second temp, HCMV UL50-53 inh, Sa growth 42C
- CCOC(=O)N1CCN(C(=O)c2cn(CC)c3ccc(S(=O)(=O)N4CCCCC4)cc3c2=O)CC1
    103, 89, -18, 98
- NC(=S)NCc1ccccc1
    ·, 93, -1, 94
- N#CCc1nc(-c2ccc(-c3ccccc3)cc2)cs1
    ·, 87, -8, 110
- S=c1[nH]c(-c2ccccc2)cn1-c1ccccc1
    104&107, 71, -32, 78
- COc1ccc(CNC(=O)NC2CCCCC2)cc1
    103, 95, -11, 108
- COC(=O)c1ccccc1NC(=O)Cn1c(=O)n(CCCC(=O)NCCc2ccc(OC)c(OC)c2)c(=O)c2ccccc21
    99, 91, -3, 88
- Cc1nc2scc(-c3cccs3)c2c(=O)o1
    101, 82, -16, 100
- O=C(CN1C(=O)c2ccccc2S1(=O)=O)N1N=C2/C(=C/c3ccco3)CCCC2C1c1ccco1 (stereo not drawn)
    ·, 83, -18, 77
- CN(C)CCNc1nc(Cc2ccccc2)nc2sc3c(c12)CCCC3
    103, ·, -20, ·
- O=CN1CCN(C(=O)COc2ccc(Br)cc2)CC1
    107, 96, -2, 102
- COC(=O)c1ccccc1NC(=O)c1ccc2c(c1)OCO2
    ·, 82, -23, 90
- COc1ccc(NC2C=CS(=O)(=O)C2)cc1 (stereo not drawn)
    ·, 89, -24, 105
- Cc1nc2c(C(=O)NCc3ccccc3)cnn2c(C)c1Cc1ccc(F)cc1
    99, 88, ·, 94
- Cc1cc(N(C)S(=O)(=O)c2ccc(N)cc2)nc(C)n1
    111, 105, 13, 115
- CCn1c(C(=O)NCc2ccc(OC)cc2)cc2sccc21
    101, 90, ·, 99
- Cc1cc(C)c(C#N)c(N2CCCC2)n1
    109, 95, 0, 85
- O=C1c2ccccc2C(=O)N1CCc1c[nH]c2ccc(OCc3ccccc3)cc12
    99, ·, -11, ·
- COc1cc(C2=NOC(C(=O)N3CCCc4ccccc43)C2)cc(OC)c1OC (stereo not drawn)
    105, 84, 1, 86
- CCOC(=O)c1cc(-c2ccccc2)nc2nc(N3CCCC3)sc12
    ·, 92, -17, 98
- CCN(CC)CCCNC(=O)c1oc2c(c1C)-c1nn(Cc3ccc(Cl)cc3)cc1CC2
    98, 81, -18, 100
- Cc1c(CCC(=O)NCc2ccc(F)cc2)c(=O)oc2cc(O)ccc12
    101, 85, -11, 107
- CCCCc1ccc(NC(=O)/C=C2\SC(=O)NC2=O)cc1
    104, 68, -24, 76
- O=C1NC(=O)NC2(N1)C(=O)Nc1ccccc12
    103, ·, -20, ·
- CCOc1cc(S(=O)(=O)NC2CC2)c(OCC)cc1-n1cnnn1
    98, 91, -27, 125
- CCC(=O)N(Cc1ccc(S(N)(=O)=O)cc1)C1CC(=O)N(c2ccccc2)C1=O (stereo not drawn)
    100, 105, -1, 98
- O=C(Cc1ccsc1)Oc1ccc2c(c1)OCO2
    ·, 88, -12, 112
- CNc1nc2ccccn2c(=O)c1/C=C1\SC(=S)N(C)C1=O
    138, 65, ·, 120
- CCc1ccccc1NC(=O)c1cccc(NC(=O)/C=C/c2ccco2)c1
    102, 81, -21, 102
- CNC(=S)Nc1ccc(N2CCOCC2)cc1
    ·, 97, 8, 109
- COC(=O)c1cc(Cl)ccc1NC(=O)CSc1ncc(S(=O)(=O)c2ccc(Br)cc2)c(=O)[nH]1
    122&117, 51, -57&-23, 75

Going on with the list.
Fields – GIV-Gai inh, Sa growth 42C second temp, HCMV UL50-53 inh, Sa growth 42C
- CN(C)S(=O)(=O)N(CC(=O)NCCSCc1ccccc1)c1ccccc1
    100, 89, -37, 91
- CCC(=O)N1CCc2cc(S(=O)(=O)CCC(=O)NCc3ccccc3OC)ccc21
    98, 92, 3, 106
- CCN(c1ccccc1)S(=O)(=O)c1ccc(O)cc1
    ·, 77, -27, 91
- CCC1=C(c2ccc(C)cc2)S(=O)(=O)N=C1N1CCC(C(=O)NCCc2ccc(Cl)cc2)CC1
    101, 92, -10, 99
- NC(N)=NCCN1CCOCC1
    114, 94, -11, 104
- O=C(CCc1ccc(S(=O)(=O)N2CCCCCC2)cc1)Nc1ccnn1Cc1cccs1
    ·, 87, -8, 100
- CN(CC(=O)NC(c1ccccc1)c1ccccc1)S(=O)(=O)c1ccc2c(c1)c(=O)n(C)c(=O)n2C
    106, 91, 2, 106
- COc1cccc(-c2nc(S(=O)(=O)c3ccccc3)c(N3CCCCC3)o2)c1
    102, 90, -3, 99
- COC(=O)C(CCSC)NC(=O)c1cc2c(n(-c3ccc(Cl)cc3)c1=O)CCCC2=O (stereo not drawn)
    97, 95, -9, 118
- COc1ccc(N/N=C(\C#N)C(=N)N2CCCCC2)cc1
    104, 66, -34, 85
- CC(=O)Nc1c(C)nn(-c2ccccc2)c1N1CCC(C(=O)Nc2ccccc2C(F)(F)F)CC1
    103, 89, ·, 79
- CC(CN1CCOCC1)OC(=O)C1COc2ccccc2O1 (stereo not drawn)
    ·, 94, -5, 95
- O=C(c1ccccc1)c1cccnc1
    105, 95, 0, 96
- COc1cccc(-c2nc(SCc3cc(=O)c4cc(Cl)ccc4[nH]3)n[nH]2)c1
    106, 87, ·, 80
- COc1ccc(-n2nc(C(=O)Nc3cc(Cl)ccc3OC)c(=O)n(C)c2=O)cc1
    100, ·, -17, ·
- COCCCNC(=O)NCCCn1c(C(F)(F)F)nc2cccnc21
    88, ·, -10, ·
- CCCS(=O)(=O)c1cc2cc(Cl)ccc2oc1=O
    94, 89, -11, 91
- COc1ccccc1CC(=O)N1CCN(c2cccc3[nH]ccc23)CC1
    108, 89, -11, 94
- COC(=O)COc1ccc2c(C)c(C)c(=O)oc2c1
    102, 97, ·, 102
- Cc1ccc2cccc(NC(=O)c3ccc(-c4ccc(Cl)cc4Cl)o3)c2n1
    103, 95, -2, 100
- N#CC(=C1CCCC1)c1nc(-c2cc3ccccc3oc2=O)cs1
    108, 85, ·, 111
- COc1ccc(OC)c(CCNC(=O)C2CCN(c3ncnc4c3nc3n4CCCCC3)CC2)c1
    101, 79, ·, 118
- Cc1cc(C(=O)OCC(N)=O)c2ccccc2n1
    ·, 92, -36, 98
- Clc1ccc(-c2noc(-c3cccnc3NCc3ccccc3)n2)cc1
    95, ·, -13, ·
- COC(=O)CNC(=O)NCCc1nc2cccnc2n1-c1ccccc1
    104, ·, -15, ·
- Nc1ccc(-c2cc(N)n[nH]2)cc1
    103, 92, -11, 101
- CCOc1ccc(C/C(O)=C2\C(=N)CC(C)(C)CC2=O)cc1OCC
    101, 81, -17, 108
- COC(=O)N/N=C\c1cccc(OC(=O)c2cccs2)c1
    106, 83, -27, 88
- Cc1sc2nc(-c3ccc(N4C(=O)CCC4=O)cc3)oc(=O)c2c1C
    97, ·, -16, ·
- N#Cc1cnc(SCC(=O)Nc2cc(Cl)ccc2O)nc1N
    101, 109, -10, 125

A stretch from the list above:
Fields – GIV-Gai inh, Sa growth 42C second temp, HCMV UL50-53 inh, Sa growth 42C
- CN(C)S(=O)(=O)N(CC(=O)NCCSCc1ccccc1)c1ccccc1
    100, 89, -37, 91
- CCC(=O)N1CCc2cc(S(=O)(=O)CCC(=O)NCc3ccccc3OC)ccc21
    98, 92, 3, 106
- CCN(c1ccccc1)S(=O)(=O)c1ccc(O)cc1
    ·, 77, -27, 91
- CCC1=C(c2ccc(C)cc2)S(=O)(=O)N=C1N1CCC(C(=O)NCCc2ccc(Cl)cc2)CC1
    101, 92, -10, 99
- NC(N)=NCCN1CCOCC1
    114, 94, -11, 104
- O=C(CCc1ccc(S(=O)(=O)N2CCCCCC2)cc1)Nc1ccnn1Cc1cccs1
    ·, 87, -8, 100
- CN(CC(=O)NC(c1ccccc1)c1ccccc1)S(=O)(=O)c1ccc2c(c1)c(=O)n(C)c(=O)n2C
    106, 91, 2, 106
- COc1cccc(-c2nc(S(=O)(=O)c3ccccc3)c(N3CCCCC3)o2)c1
    102, 90, -3, 99
- COC(=O)C(CCSC)NC(=O)c1cc2c(n(-c3ccc(Cl)cc3)c1=O)CCCC2=O (stereo not drawn)
    97, 95, -9, 118
- COc1ccc(N/N=C(\C#N)C(=N)N2CCCCC2)cc1
    104, 66, -34, 85
- CC(=O)Nc1c(C)nn(-c2ccccc2)c1N1CCC(C(=O)Nc2ccccc2C(F)(F)F)CC1
    103, 89, ·, 79
- CC(CN1CCOCC1)OC(=O)C1COc2ccccc2O1 (stereo not drawn)
    ·, 94, -5, 95
- O=C(c1ccccc1)c1cccnc1
    105, 95, 0, 96
- COc1cccc(-c2nc(SCc3cc(=O)c4cc(Cl)ccc4[nH]3)n[nH]2)c1
    106, 87, ·, 80
- COc1ccc(-n2nc(C(=O)Nc3cc(Cl)ccc3OC)c(=O)n(C)c2=O)cc1
    100, ·, -17, ·
- COCCCNC(=O)NCCCn1c(C(F)(F)F)nc2cccnc21
    88, ·, -10, ·
- CCCS(=O)(=O)c1cc2cc(Cl)ccc2oc1=O
    94, 89, -11, 91

Other structures follow:
Fields – GIV-Gai inh, Sa growth 42C second temp, HCMV UL50-53 inh, Sa growth 42C
- CCOC(=O)C1=C(C)N=c2s/c(=C\c3ccc(OC)cc3OC)c(=O)n2C1c1ccc(N(C)C)cc1 (stereo not drawn)
    113, ·, -7, ·
- CCN1CCCC1CNC(=O)CCc1nc(-c2ccc(C)cc2)no1 (stereo not drawn)
    107, 94, 6, 116
- FC(F)(F)c1cccc(Nc2nc(Cl)nc(NCc3ccco3)n2)c1
    103, ·, -28, ·
- CN(C)C(=O)Cc1c(Cl)sc2ccccc12
    104, 88, -2, 110
- CC(C)NCC(O)c1ccc(NS(C)(=O)=O)cc1 (stereo not drawn)
    107&102, 86&92&84, -10&-42&31&2&-37&-5&-13, 89&91&90
- COc1ccc(NC(=O)CSc2nc(O)cc(=O)n2-c2ccccc2OC)cc1
    107, 72, ·, 90
- Cc1ccc(NC(=O)CCc2c(C)nn3cnnc3c2C)cc1
    107, 90, -36, 86
- O=C(COC(=O)c1ccccc1F)NC(c1ccccc1)c1ccccc1
    ·, 89, -18, 105
- Nc1ccc2c(c1)OC1(O)c3ccccc3C(=O)C21O (stereo not drawn)
    ·, 91, -20, 81
- COC(=O)c1sc(N)c(C(=O)OC)c1CSc1nnc(Cc2ccccc2)n1C
    ·, 87, -15, 98
- COc1ccc(Cl)cc1NC(=O)c1c(-c2ccccc2Cl)noc1C
    100, ·, -3, ·
- COc1ccc(Cl)cc1C(=O)CCC(=O)O
    102, 88, -11, 69
- C=CCN1CCN(C(c2ccc(C)cc2)c2nnnn2C2CCCC2)CC1 (stereo not drawn)
    104, 115, 12, 80
- C/C(=N\NC(=O)c1cc2ccccc2cc1O)c1cccnc1
    102, 85, -38, 107
- NC(=O)c1sc(-c2cccs2)cc1N
    98, 82, -90, 84
- Cc1ccc2c(CN(C)c3ccccc3)cc(=O)oc2c1
    107, 85, ·, 103
- O=C1CCCN2N=C(SCC(=O)Nc3ccc(Cl)cc3)SC2=N1
    105, ·, -17, ·
- Cc1cccc(NC(=O)C(C)C)c1
    ·, 95, -1, 113
- CCN(CC)c1ccc(NC(=O)C2CCCCC2)c(N(CC)CC)n1
    106, 94, -55, 100
- CC1CC(C)CN(C(=O)COC(=O)Cc2coc3cc(O)ccc23)C1 (stereo not drawn)
    ·, 90, -12, 85
- COc1ccc2cc(C(=O)N3CCc4c(c(C(=O)NCc5ccccc5)nn4C)C3)[nH]c2c1
    103, ·, -34, ·
- CC(=O)N1N=C(c2c(-c3ccccc3)c3cc(Cl)ccc3[nH]c2=O)CC1c1ccccc1F (stereo not drawn)
    95, ·, -7, ·
- Oc1oc(C=Nc2ccccc2)c2ccccc12
    103, ·, -10, ·
- Cn1c(=O)c2c(nc(N3CCN(C(=O)c4ccco4)CC3)n2CCSc2ncccn2)n(C)c1=O
    98, 95, 1, 103
- CCc1ccccc1N(CC)C(=O)Cn1ncc2c1-c1ccccc1OC2
    101, 70, ·, 96

Screening data as filed in PubChem.
